rRNA inh HTS: reduced GFP signal of wild-type E. coli, primary screen, bacterial rRNA inhibitor project, GFP/RFP fluorescence, OD600, single point; E. coli WT GFP vs humanized-ribosome RFP mutants, 24 h; hits give low values; DMSO median 0, no signal -100; GFP signal change (wild-type ribosome), % (no concentration beside the values); 1.6% of 350,000 active; AID 720706, 2013;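 active means significant combined selectivity score with lowered wild-type GFP, culture density cut under 30%, mutant RFP and density less affected; inactive means any of these conditions unmet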; further: one replicate is shown; some compounds called inactive have numbers as strong as hits
rRNA inh HTS OD600: further read-out of rRNA inh HTS, marked with its call; OD600 change, %; measured here: OD600 growth;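 optical density of the mix in the first replicate; 0 = DMSO median and -100 = no signal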
rRNA inh HTS RFP: also measured in rRNA inh HTS; calls as there; RFP signal change, %; measured here: RFP humanized mutant strains;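 first replicate; 0 = DMSO median and -100 = no signal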
Active calls of the source: *; & = joins results of further samples.

mol | rRNA inh HTS | rRNA inh HTS OD600 | rRNA inh HTS RFP
COc1cccc(-c2cnc3c(c2)C(=O)N([C@H](C)CO)C[C@H](C)[C@H](CN(C)S(=O)(=O)c2cn(C)cn2)O3)c1 | 4 | 8 | -2.1
O=C(N[C@@H]1CC[C@@H](CCNC(=O)C2CCC2)O[C@@H]1CO)c1ccccn1 | 2 | 3 | -0.5
COc1ccc(CN(C)C[C@@H]2Oc3ccc(NS(=O)(=O)c4cn(C)cn4)cc3CC(=O)N([C@H](C)CO)C[C@@H]2C)cc1 | 3 | 5 | -2.9
CS(=O)(=O)N1CCCCC1c1cc(C(=O)Nc2ccccc2Cl)no1 (stereo unspecified) | 10 | 10 | 2.3
COCC(=O)Nc1ccc2c(c1)C(=O)N(C)[C@H]1CC[C@H](CC(=O)NCCCN(C)C)O[C@H]1CO2 | 4 | 5 | -1.5
COc1ccccc1-c1ccc([C@@H]2[C@@H](CO)N3CCCCN(Cc4ccncc4)C[C@@H]23)cc1 | 4 | 1 | 0.4
CCOc1ccc(CCN2C(=S)N([C@@H](Cc3ccccc3)CN3CCC[C@@H]3CN3C(=S)NC[C@@H]3CC(C)C)C[C@@H]2Cc2ccccc2)cc1 | 23 | 40 | 8.9
COc1cccc(CNC(=O)c2ccc(S(=O)(=O)N3CCCCC3)cc2)c1 | -6 | -12 | 0.7
COc1ccccc1CC1(C)C(=O)Nc2ccc(S(=O)(=O)NC3CCCCC3)cc21 (stereo unspecified) | -1 | -27 | -8.6
Cc1noc(C)c1NC(=O)N(C)C[C@H]1OCCCC[C@H](C)Oc2ccc(NC(=O)NC3CCCCC3)cc2C(=O)N([C@@H](C)CO)C[C@@H]1C | 3 | 4 | -1.5
COc1ccc(C(=O)Nc2ccc3c(c2)OC[C@H](C)N(C(C)=O)C[C@@H](C)[C@@H](OC)CN(C)C3=O)cc1 | -2 | -3 | 0.1
C[C@@H]1CN([C@@H](C)CO)C(=O)c2cccc(NC(=O)Nc3ccc(F)cc3)c2O[C@H]1CN(C)C(=O)Nc1cccc2ccccc12 | -6 | -16 | 2.8
CO[C@@H]1CN(C)C(=O)c2ccc(NC(=O)C3CCC3)cc2OC[C@H](C)N(Cc2ccc(F)cc2)C[C@@H]1C | 2 | 6 | 0.6
CCCc1c(C(=O)N/N=C(\C)c2ccccc2O)nnn1-c1nonc1N | -12 | -8 | -3.0
C[C@H]1CCCCO[C@H](CN(C)CC2CCCCC2)[C@@H](C)CN([C@@H](C)CO)C(=O)c2cc(NC(=O)c3ccncc3)ccc2O1 | 0 | -1 | 1.5
CN1C(=O)c2cc(NC(=O)c3cccs3)ccc2OC[C@H]2O[C@H](CC(=O)NCC(F)(F)F)CC[C@@H]21 | -1 | 4 | -2.0
COc1ccc(N2C(=O)c3n[nH]c(C(C)C)c3C2c2ccc(F)cc2)cc1 (stereo unspecified) | -42 | -58 | -11
CO[C@@H]1CN(C)C(=O)c2ccc(NC(=O)NC(C)C)cc2OC[C@@H](C)N(C(=O)NC(C)C)C[C@H]1C | 2 | -2 | -1.1
O=C(C[C@H]1C[C@@H]2c3cc(NS(=O)(=O)c4ccc(F)cc4)ccc3O[C@@H]2[C@H](CO)O1)NCc1ccccc1F | -3 | -16 | 1.3
COC(=O)c1ccc(CN2CC(=O)N3[C@H](CO)[C@H](c4ccc(-c5cccnc5)cc4)[C@@H]3C2)cc1 | -1 | -6 | 0.5
C[C@H](CO)N1C[C@H](C)[C@H](CN(C)C(=O)c2ccncc2)Oc2ncc(C3=CCCCC3)cc2C1=O | 0 | -5 | -1.5
CC(C)NC(=O)Nc1ccc2c(c1)C(=O)N([C@@H](C)CO)C[C@H](C)[C@@H](CN(C)Cc1ccccc1)O2 | 2 | 6 | -3.6
CN(C)CC#Cc1ccc([C@H]2[C@@H](CO)N3CCCCN(CC4CC4)C[C@H]23)cc1 | 4 | 25 | -6.6
O=C(C[C@@H]1C=C[C@H](NS(=O)(=O)c2ccc(F)cc2)[C@H](CO)O1)NC1CCC1 | 4 | 7 | -2.6
COc1ccccc1CN1C[C@@H]2N[C@H](C1)C2c1ccc(-c2cccc(C#N)c2)cc1 (stereo partly specified) | -59&-59 | -79&-80 | -16&-14
Cc1ncccc1C(=O)N1CCCC(c2cc(C(=O)Nc3ccc(C(C)(C)C)cc3)no2)C1 (stereo unspecified) | 0 | -16 | -2.5
CO[C@H]1CN(C)C(=O)c2cc(NC(=O)Nc3cc(Cl)cc(Cl)c3)ccc2OC[C@@H](C)NC[C@@H]1C | -7&-12 | -26&-32 | 11&15
CNc1cncc(-c2ccc(CN3CCOCC3)cc2)n1 | 13 | 13 | -0.7
COCCNC(=S)N1C[C@H]2CON(C)[C@H]2C[C@H]1c1ccccc1Br | 2 | 22 | -0.2
C[C@H]1CN([C@@H](C)CO)C(=O)c2cc(C#CCN(C)C)cnc2O[C@H]1CN(C)C(=O)NC1CCCCC1 | 8 | -1 | 1.5

Part of the list above, field by field:
COc1ccc(CN(C)C[C@@H]2Oc3ccc(NS(=O)(=O)c4cn(C)cn4)cc3CC(=O)N([C@H](C)CO)C[C@@H]2C)cc1
  rRNA inh HTS = 3; rRNA inh HTS OD600 = 5; rRNA inh HTS RFP = -2.9

COc1ccccc1CC1(C)C(=O)Nc2ccc(S(=O)(=O)NC3CCCCC3)cc21 (stereo unspecified)
  rRNA inh HTS = -1; rRNA inh HTS OD600 = -27; rRNA inh HTS RFP = -8.6

Remaining list, next part.
mol | rRNA inh HTS | rRNA inh HTS OD600 | rRNA inh HTS RFP
COc1cccc(CNc2nc3cc(-c4ccccc4)sc3c(=O)n2C)c1OC | 0 | -2 | -5.0
O=C(N[C@H]1C=C[C@@H](CC(=O)N2CCOCC2)O[C@@H]1CO)c1ccccn1 | 3 | 1 | -0.9
C/C=C/c1ccc([C@@H]2[C@H](CO)N3C(=O)CN(Cc4ccc(F)cc4)C[C@@H]23)cc1 | -3 | -12 | -1.3
C[C@H](CO)N1C[C@H](C)[C@H](CN(C)Cc2ccc(F)cc2)Oc2ncc(-c3cccc(F)c3)cc2C1=O | -3 | -6 | 4.2
Fc1ccccc1-c1ccc(C2[C@H]3CNC[C@@H]2N3CC2CC2)cc1 (stereo partly specified) | 1 | 13 | 3.6
CCCCOCC1CN(CCCC)S(=O)(=O)c2c(cccc2N2CCCC2)O1 (stereo unspecified) | 5 | -6 | -0.7
CO[C@@H]1CN(C)C(=O)c2cc(NS(=O)(=O)c3ccc(C)cc3)ccc2OC[C@H](C)N(Cc2nccs2)C[C@@H]1C | -3 | -15 | 7.3
CCc1nc2ccc(C(=O)NCc3ccc(OC)cc3)cn2c1N(C)Cc1ccc(OC)cc1 | -2 | -15 | -2.3
Cc1cc(C)cc(C(O)c2ncc(-c3cccc(C(F)(F)F)c3)[nH]2)c1 (stereo unspecified) | -62 | -79 | -18
CCCCCCCCN1C(=O)[C@@H](CC(=O)NCc2cccc3ccccc23)C[C@@]2(C(=O)OC)C1=C[C@H](C1CCCC1)O[C@@H]2C | 14 | 5 | 1.4
CCC(=O)N1CC2(C1)[C@H](c1ccc(-c3ccc(C#N)cc3)cc1)[C@@H](CO)N2C(C)=O | -4 | -6 | 0.6
CSc1ccc(Cn2c(C)c(C(=O)NCc3ccccc3C(F)(F)F)sc2=O)cc1 | 5 | 15 | -2.5
CCC(=O)N1CC2(CN(Cc3ccc(Cl)cc3)C2)c2c(n(C)c3cc(OC)ccc23)[C@H]1CO | -55 | -77 | -12
COc1ccc(CN(C)C[C@@H]2OCCCC[C@@H](C)Oc3ccc(NS(=O)(=O)c4ccc(Cl)cc4)cc3C(=O)N([C@@H](C)CO)C[C@@H]2C)cc1 | 4 | -24 | 19
CNC[C@@H]1Oc2c(N)cccc2C(=O)N([C@H](C)CO)C[C@H]1C | 3 | -2 | -1.1
O=C(N[C@H]1C=C[C@H](CC(=O)N2CCc3ccccc3C2)O[C@H]1CO)C1CCC1 | 0 | 8 | -0.8
COc1ccccc1C(=O)NCCN1CCCC1 | 11 | 14 | 1.9
C[C@@H]1CN([C@@H](C)CO)C(=O)c2cc(NC(=O)c3ccccc3)ccc2O[C@@H](C)CCCCO[C@@H]1CN(C)C | 4 | 6 | -0.4
C[C@H]1CN([C@@H](C)CO)C(=O)c2cccc(NC(=O)C3CC3)c2O[C@H]1CN(C)C(=O)Nc1cccc2ccccc12 | 3 | 0 | 0.6
O=C(N[C@H]1CC[C@@H](CCn2cc(-c3ccccc3)nn2)O[C@@H]1CO)c1ccccc1F | -1 | 4 | 0.0
COc1ccc(S(=O)(=O)Nc2cccc3c2O[C@@H](CN(C)C(=O)Nc2cccc4ccccc24)[C@H](C)CN([C@H](C)CO)C3=O)cc1 | 2 | -1 | 2.1
COc1ccc(S(=O)(=O)N(C)C[C@H]2OCCCC[C@H](C)Oc3ccc(NC(=O)C4CCCCC4)cc3C(=O)N([C@@H](C)CO)C[C@@H]2C)cc1 | -1 | 0 | 0.2
CC[C@@H]1C/C=C\CCNC(=O)CCC(=O)N1 | 1 | 2 | -0.8
C[C@@H]1CN([C@H](C)CO)C(=O)c2cc(NC(=O)CCCN(C)C)ccc2O[C@@H](C)CCCCO[C@@H]1CN(C)Cc1ccc(C(F)(F)F)cc1 | 0 | -1 | 7.7
CCCNC(=O)N1C[C@H]2[C@@H](c3ccccc31)[C@@H](CO)N2C(=O)Cc1ccccn1 | 0 | 0 | -2.0
Cc1cc2nc(C3CCCCC3)c(Cc3cccc(F)c3)n2c(C)c1Br | 14 | 10 | 10
CCOC(=O)C1=CCN(S(=O)(=O)c2cccc(Cl)c2)C1c1cccc(C)c1 (stereo unspecified) | 6 | 3 | 3.1
C[C@@H]1CN([C@H](C)CO)C(=O)c2cc(C#CCc3ccccc3)cnc2O[C@H]1CN(C)CC1CCOCC1 | 6 | 18 | 1.0
Cc1noc(C)c1NC(=O)Nc1ccc2c(c1)C(=O)N([C@H](C)CO)C[C@@H](C)[C@@H](CN(C)Cc1ccc(C(F)(F)F)cc1)O2 | -4 | -4 | -5.1
C[C@@H]1CN([C@@H](C)CO)C(=O)c2cc(NS(=O)(=O)c3ccc(F)cc3)ccc2O[C@@H](C)CCCCO[C@@H]1CN(C)C(=O)CCC(F)(F)F | -3 | -4 | 0.9

Profiles as entered above. Order of values: rRNA inh HTS | rRNA inh HTS OD600 | rRNA inh HTS RFP
O=C(N[C@H]1CC[C@@H](CCn2cc(-c3ccccc3)nn2)O[C@@H]1CO)c1ccccc1F in the list: -1 | 4 | 0.0
CCOC(=O)C1=CCN(S(=O)(=O)c2cccc(Cl)c2)C1c1cccc(C)c1 (stereo unspecified) in the list: 6 | 3 | 3.1

Other entries.
mol | rRNA inh HTS | rRNA inh HTS OD600 | rRNA inh HTS RFP
O=C(Nc1cc(F)ccc1F)N1CC(=O)N2[C@H](CO)[C@@H](c3ccc(C#CC4CCCCC4)cc3)[C@@H]2C1 | 4 | 6 | -1.1
CC(C)NC(=O)Nc1ccc2c(c1)C(=O)N([C@@H](C)CO)C[C@H](C)[C@H](CN(C)Cc1ccc3c(c1)OCO3)O2 | -1 | 6 | 1.5
COc1ccc([C@H]2C[C@H](O)[C@@H](n3cc(-c4ccc(F)cc4)nn3)CN2C(=O)c2cccs2)cc1 | -8 | -12 | 3.3
O=C(C[C@@H]1C[C@@H]2c3cc(NC(=O)C4CCOCC4)ccc3O[C@@H]2[C@@H](CO)O1)NCc1cc(F)ccc1F | 4 | 12 | -1.3
CC(C)NC(=O)N[C@@H]1C=C[C@H](CC(=O)NCCCN(C)C)O[C@@H]1CO | -2 | 2 | -0.4
CCOc1ccccc1NC(=O)c1ccc2c(O)c(S(=O)(=O)c3ccccc3)c(=O)[nH]c2c1 | 4 | 12 | -1.8
CN(C)CC#Cc1ccc([C@H]2[C@H](CO)N3C(=O)CN(C(=O)c4ccccc4)C[C@@H]23)cc1 | 4 | -2 | -0.6
C[C@@H]1CN([C@H](C)CO)S(=O)(=O)c2ccc(C#CC3(O)CCCC3)cc2O[C@@H]1CN(C)CC1CC1 | 1 | 0 | -2.0
CC(=O)NC(C)(c1ccccc1)c1nc(-c2cccc(C#N)c2)cs1 (stereo unspecified) | -2 | 3 | 2.9
O=C(C[C@H]1C[C@@H]2c3cc(NC(=O)C4CCOCC4)ccc3O[C@@H]2[C@@H](CO)O1)NCc1ccc2c(c1)OCO2 | -6 | -3 | -4.0
C[C@@H]1CN([C@H](C)CO)C(=O)c2cc(NC(=O)Cn3cnnn3)ccc2O[C@H]1CN(C)C | -1 | 1 | 0.3
C[C@@H]1CN([C@H](C)CO)S(=O)(=O)c2ccc(-c3ccncc3)cc2O[C@@H]1CN(C)Cc1ccccn1 | -5 | -7 | -3.1
C[C@@H]1CN([C@H](C)CO)S(=O)(=O)c2ccc(-c3ccc(F)cc3)cc2O[C@H]1CN(C)C(=O)Nc1ccc(F)cc1 | -3 | -21 | 9.8
Cc1ccccc1CN1C(=O)c2ccccc2C1c1nnnn1-c1ccc2c(c1)OCCO2 (stereo unspecified) | -29 | -33 | -4.4

As a working copy, part of the list above:
mol | rRNA inh HTS | rRNA inh HTS OD600 | rRNA inh HTS RFP
O=C(Nc1cc(F)ccc1F)N1CC(=O)N2[C@H](CO)[C@@H](c3ccc(C#CC4CCCCC4)cc3)[C@@H]2C1 | 4 | 6 | -1.1
CC(C)NC(=O)Nc1ccc2c(c1)C(=O)N([C@@H](C)CO)C[C@H](C)[C@H](CN(C)Cc1ccc3c(c1)OCO3)O2 | -1 | 6 | 1.5
COc1ccc([C@H]2C[C@H](O)[C@@H](n3cc(-c4ccc(F)cc4)nn3)CN2C(=O)c2cccs2)cc1 | -8 | -12 | 3.3
O=C(C[C@@H]1C[C@@H]2c3cc(NC(=O)C4CCOCC4)ccc3O[C@@H]2[C@@H](CO)O1)NCc1cc(F)ccc1F | 4 | 12 | -1.3

Bioassay records deposited in PubChem BioAssay by Broad Institute.

These rows are one share of the data; rates above refer to the full screens.
